# Screening data: PubChem BioAssay, National Center for Advancing Translational Sciences (NCATS)
# Rango complex inh – qHTS Assay for Inhibitors of Rango (Ran-regulated importin-beta cargo) - Importin beta complex formation; Importin subunit beta-1 (Homo sapiens), Q14974; Rango CFP/YFP FRET sensor + importin beta, 45 min; Potency, µM (highest dose often 92.2 µM), for inactives: at the highest dose inhibition of complex formation; 340,000 tested, 0.031% active; active = rising FRET ratio curve, often small or poorly fitted; inconclusive = mostly compound fluorescence or quenching in the first reads; inactive = flat curves in all reads;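 also: potency is read from the fitted curve at half-maximal effect; 0% = DMSO wells and 100% = buffer wells lacking importin beta; nearly all actives have a fitted effect of over 15% in size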
# Target sequence (Q14974 whole entry, looked up): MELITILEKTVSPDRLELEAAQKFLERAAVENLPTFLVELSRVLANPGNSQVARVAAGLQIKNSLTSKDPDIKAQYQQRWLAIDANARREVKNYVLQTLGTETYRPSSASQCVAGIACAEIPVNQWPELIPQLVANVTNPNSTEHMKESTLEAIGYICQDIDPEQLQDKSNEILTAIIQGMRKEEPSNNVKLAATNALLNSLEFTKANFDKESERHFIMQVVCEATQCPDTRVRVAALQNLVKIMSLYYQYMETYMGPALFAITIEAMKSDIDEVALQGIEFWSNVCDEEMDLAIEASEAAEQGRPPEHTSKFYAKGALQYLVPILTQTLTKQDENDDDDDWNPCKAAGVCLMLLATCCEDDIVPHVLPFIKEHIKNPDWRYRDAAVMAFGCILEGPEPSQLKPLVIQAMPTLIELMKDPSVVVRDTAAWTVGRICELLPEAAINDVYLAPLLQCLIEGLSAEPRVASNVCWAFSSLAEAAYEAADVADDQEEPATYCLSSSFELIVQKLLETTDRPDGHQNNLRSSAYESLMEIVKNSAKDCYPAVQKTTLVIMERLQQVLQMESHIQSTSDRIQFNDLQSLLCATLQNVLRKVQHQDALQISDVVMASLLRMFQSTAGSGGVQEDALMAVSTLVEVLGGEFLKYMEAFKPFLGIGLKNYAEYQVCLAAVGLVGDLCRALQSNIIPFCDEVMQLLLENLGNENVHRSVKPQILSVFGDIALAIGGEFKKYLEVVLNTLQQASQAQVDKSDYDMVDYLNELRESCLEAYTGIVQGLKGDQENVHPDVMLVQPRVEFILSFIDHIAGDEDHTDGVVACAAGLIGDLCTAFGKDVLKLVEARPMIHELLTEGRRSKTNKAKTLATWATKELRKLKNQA
#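 Inhibition scored from the CFP 486 nm/YFP 530 nm FRET ratio 45 min after adding 0.125 microM importin beta to 50 nM Rango biosensor preincubated 5 min with compound (room temperature, PBS with DTT, Tween-20, BSA). No-importin wells as positive control.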
# Rango dissoc inh – qHTS Assay for Inhibitors of RanGTP induced Rango (Ran-regulated importin-beta cargo) - Importin beta complex dissociation | Biochemical FRET Rango-importin beta, RanGTP-induced dissociation | Potency, µM (highest dose often 46.1 µM), without a hit: at the highest dose activity change, negative = inhibition | 340,000 tested, 0.071% active | AID 540253, 2011; active means falling FRET ratio curve, often poorly fitted, with flat reads before Ran was added; inconclusive means other falling curves, or compound fluorescence or quenching; inactive means flat or rising ratio curve;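 also: potency is read from the fitted curve at half-maximal effect; % of control where 0% means no effect; nearly all actives have a fitted effect of over 45% in size; -100% = wells without RanGTP and RCC1; the record marks most hits as doubtful in a second field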
#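 Compounds sat 5 min at room temperature with 0.1 uM Rango biosensor plus 0.25 uM importin beta, then FRET pre-read. RanGTP-RCC1 (0.6 uM Ran, 2mM GTP, 0.2 uM RCC1) added for 45 min, and the CFP/YFP post-read measured blocked complex dissociation.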
# GLA inh pH 4.5 – qHTS Assay for Inhibitors of Human alpha-Galactosidase at pH 4.5; purified enzyme, 4-MU-alpha-Gal fluorescence, pH 4.5; activity change, negative = inhibition, % at 105 µM; 230,000 tested, under 10 active; inconclusive = small, poorly fitted or top-dose-only inhibition, or a rising curve; inactive = flat fitted curve, though single readings scatter; no compound was filed as active;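 also: 0% = full activity with enzyme and -100% = basal without enzyme; dose as in the result columns while the protocol names 77 µM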
# miR-21 reporter – qHTS Assay for Modulators of miRNAs and/orActivators of miR-21 | HeLa miR-21 FLuc reporter, luciferase, 48 h | Potency, µM (titrated, usually from 38.3 µM), without a hit: top-dose reporter change, positive = more light | 340,000 tested, under 10 active | AID 2288, 2010; active = well fitted rising curve with a large enough effect; inconclusive = small, poorly fitted or top-dose-only effect; inactive = no such curve, though single readings can be large or run the other way;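 also: % of control where 0% means no effect; miR-21 action dims this reporter so a rising signal means less miR-21 action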
#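 Using DMEM plus 10% FBS, HeLa miR-21-FLuc cells are incubated with test compounds (final up to about 40uM) for 48 hours; firefly luciferase signal is then imaged following reagent-mediated lysis.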
# An asterisk follows results filed as active; u = inconclusive; x = not tested or not shown; [ ] = remark or other dose. Not all compounds are listed; count on the stated rates, not on these rows.
Rango complex inh,Rango dissoc inh,GLA inh pH 4.5,miR-21 reporter,molecule
-1.4%,-13.9%,-9.9,-57.1%,N#Cc1c(NC(=O)c2ccccc2)sc2c1CCCCC2
1.1%,0.2%,x,2.0%,Cc1cccc(NC(=O)c2cccnc2Oc2ccccc2)c1C(=O)O
-1.0%,5.5%,x,x,COc1ccc(-n2ccnc(SCC(=O)NCc3ccc(C)cc3)c2=O)cc1Cl
-3.5%,4.0%,8.3,-0.9%,COC(=O)[C@H](CCSC)NC(=O)N1CCC(C)CC1
1.2%,3.8%,0.2,0.9%,O=C1C=C(O)C(n2cncn2)C(c2ccc3c(c2)OCO3)C1 (centres undefined)
2.1%,-14.4%,x,-4.2%,CN1C2CCC1CC(NC(=O)c1cc(Cl)cc3[nH]cnc13)C2 (centres undefined)
-0.9%,-4.3%,-18.1,-9.6%,CC(C)N=C(Nc1ccc(Cl)cc1)c1cccnc1
5.5%,57.4%,x,x,CC(OC(=O)c1cc(=O)c2ccccc2o1)C(=O)Nc1ccc(N(C)C)cc1 (centres undefined)
-2.1%,-10.0%,-3.2,1.4%,COC(=O)/C=C1\S/C(=N/N=C/c2ccco2)NC1=O
0.0%,-2.7%,x,-2.1%,CCOc1ccc(S(=O)(=O)n2cnc(C)c2)cc1
-2.0%,-0.4%,23.9,-5.2%,CC1=CN2C(=NC(=O)CC2(C)C(=O)N(CC(=O)NC2CCCC2)c2cc(C)cc(C)c2)C=C1 (centres undefined)
2.5%,1.9%,3.2,2.3%,CC1=C(C(=O)OC2CCCCCCC2)C(c2cccc(O)c2)NC(=O)N1 (centres undefined)
-3.1%,-3.7%,5.2,-0.4%,O=C(Cn1[nH]c(=O)c2ccccc2c1=O)NCc1cccnc1
u,-9.8%,x,x,COc1cccc2c1oc1c(SCc3nc4ccccc4[nH]3)nc(C)nc12
-2.1%,1.1%,0.9,2.0%,COCCNc1c2c(nc3c(-c4ccccc4)c(C)nn13)CCCC2
-2.4%,24.3%,9.3,1.4%,Brc1ccc2c(c1)OCCOCCOCCOCCOCCO2
1.5%,-21.7%,-7.1,7.8%,Fc1ccc(Nc2nc(N/N=C/c3ccco3)nc(N3CCCCC3)n2)cc1
4.6%,-0.9%,2.7,-17.3%,CCc1nc(NCCN2CCOCC2)c(C#N)c2c1CCCC2
u,-3.3%,4.4,2.1%,CCOC(=O)C1CCN(c2c(-c3ccccc3)c3cc(Cl)ccc3[nH]c2=O)CC1
6.2%,-1.7%,x,-2.7%,O=S(=O)(NCc1ccccc1)c1ccc(-n2cccn2)cc1
-1.2%,-4.9%,x,-0.1%,CN(CCC(=O)Nc1ccc(Cl)cc1)Cc1ccccc1
1.9%,-9.4%,x,0.8%,Cc1ccc(C(=O)NCC(=O)NCc2cc(=O)n(C)c(=O)n2C)cc1C
-0.6%,2.3%,-11.4,1.5%,CC(=O)N(Cc1c(C)nn(-c2ccccc2)c1Cl)c1ccc(Cl)cc1
5.4%,-7.7%,x,x,COc1ccc(C2=NOC(C)(c3nnc(-c4ccncc4)o3)C2)cc1 (centres undefined)
-0.4%,25.8%,x,x,Cc1ccc(S(=O)(=O)N2CCN(C(=O)COC(=O)c3cnc(C)cn3)CC2)c(C)c1
-3.0%,-18.6%,2.0,-3.1%,Cc1cccc(C(=O)Nc2nnc(-c3ccco3)o2)c1
1.7%,-5.8%,0.9,-2.8%,O=C(Cn1c(NCCO)nc2ccccc21)N1CCN(Cc2ccccc2)CC1
-4.8%,-9.9%,-0.8,-6.4%,O=C(c1ccco1)N1CCN(C(=O)C2CC(c3ccc(F)cc3)=NO2)CC1 (centres undefined)
-2.9%,-7.7%,2.2,-71.1%,Cc1ccc2c(c1)COc1c3ccc(C(=O)NCCO)cc3nn1-2
0.3%,-5.2%,x,-24.6%,O=C(NCc1ccc2c(c1)OCO2)C1CCCCC1

# Reprinted at random: two entries already listed.
Rango complex inh,Rango dissoc inh,GLA inh pH 4.5,miR-21 reporter,molecule
1.5%,-21.7%,-7.1,7.8%,Fc1ccc(Nc2nc(N/N=C/c3ccco3)nc(N3CCCCC3)n2)cc1
-2.4%,24.3%,9.3,1.4%,Brc1ccc2c(c1)OCCOCCOCCOCCOCCO2

# The main list resumes, starting 3 compounds before the break.
Rango complex inh,Rango dissoc inh,GLA inh pH 4.5,miR-21 reporter,molecule
-4.8%,-9.9%,-0.8,-6.4%,O=C(c1ccco1)N1CCN(C(=O)C2CC(c3ccc(F)cc3)=NO2)CC1 (centres undefined)
-2.9%,-7.7%,2.2,-71.1%,Cc1ccc2c(c1)COc1c3ccc(C(=O)NCCO)cc3nn1-2
0.3%,-5.2%,x,-24.6%,O=C(NCc1ccc2c(c1)OCO2)C1CCCCC1
0.1%,3.5%,1.8,-11.1%,Nc1n[nH]c(-c2ccc(F)cc2)n1
1.8%,8.9%,-4.0,-0.5%,CCC(CCC(=O)Nc1ccc(S(N)(=O)=O)cc1)C(=O)O (centres undefined)
-13.5%,1.5%,x,8.2%,COc1ccc(OC)c(S(=O)(=O)N2CCCC(C(=O)NCc3ccncc3)C2)c1 (centres undefined)
u,19.2%,-4.4,0.3%,Cn1c(-c2ccccc2)n[nH]c1=S
-0.8%,-5.7%,x,-6.6%,CC1CCN(CCCCOc2ccc(Cl)cc2)CC1
-3.2%,0.0%,x,1.4%,CC(C)(C)c1ccc(C(=O)Nc2nnc(C3=COCCO3)o2)cc1
u,u,x,-32.0%,CCN(CC)Cc1c(O)ccc2cc(-c3nc4ccccc4n3C)c(=O)oc12
u,-13.9%,5.2,-0.9%,Cc1cccc(C)c1NC(=O)COC(=O)c1cccnc1
-0.4%,-23.2%,3.2,-61.9%,COc1ccc(-c2cc(C(=O)N3CCCCC3)no2)cc1OC
0.5%,4.2%,x,-5.0%,Cc1cnc(C(=O)OCc2ccc(Br)cc2F)cn1
1.9%,9.0%,x,x,CN1C[C@@H]2[C@@H]3C(=O)N(C)C(=O)[C@@H]3[C@](C)(C1=O)N2C(=O)c1ccc(Cl)cc1
0.1%,-3.6%,-22.2,26.6%,O=C(N/N=C/c1ccc([N+](=O)[O-])s1)c1ccncc1
3.0%,-5.9%,-6.2,-3.3%,O=S(=O)(Nc1ncnc2sc3c(c12)CCC3)c1ccc2ccccc2c1
-2.0%,14.1%,x,x,CS(=O)(=O)c1ccc(Cl)c(NC(=O)COC(=O)CCCN2C(=O)c3cccc4cccc(c34)C2=O)c1
u,u,-4.7,-29.1%,COc1ccc(Cl)cc1C(=O)CSc1nnnn1C1CCCC1
2.2%,3.1%,x,-5.7%,CC(Oc1ccccc1)C(=O)N=C1SC2CS(=O)(=O)CC2N1Cc1ccc(F)cc1 (centres undefined)
-2.5%,-1.9%,-5.5[21.1 µM],-7.0%,O=C(Nc1cccnc1)c1ccc(-c2ccc(Cl)cc2)o1
0.7%,-1.4%,-0.6,-0.7%,COc1cccc(CNCc2cccnc2)c1OCc1ccccc1
-1.5%,15.7%,-25.8,-3.2%,CC(C(=O)Nc1nncs1)N1C(=O)C2C3C=CC(C3)C2C1=O (centres undefined)
0.1%,-12.2%,3.7,-2.1%,CC(C)NC(=O)COc1ncnc2sccc12
-0.1%,-1.5%,-5.0,0.6%,CC(C)Oc1ccc(CC2CC(=O)NC2=O)cc1 (centres undefined)
2.9%,8.4%,0.3,-49.5%,Cc1ccc(C(=O)Cn2nnc3ccccc32)cc1[N+](=O)[O-]
1.7%,1.6%,x,-3.6%,CCc1ccnc(NC(=O)Nc2ccc(OCc3ccccc3)cc2)c1
2.7%,4.7%,11.9,-48.5%,O=C(Nc1ccc2c(c1)OCO2)N1CCN(c2ccc(F)cc2)CC1
4.9%,-6.1%,4.9,9.8%,CCOC(=O)Cc1csc(NC(=O)c2ccc(S(=O)(=O)N(CCOC)CCOC)cc2)n1
1.6%,2.1%,7.4,-3.0%,CCCCCSc1nc2c(c(=O)[nH]c(=O)n2C)n1C
-1.3%,28.2%,x,-11.1%,OC(CNC1Cc2ccccc2C1)c1ccccc1 (centres undefined)
0.1%,-2.2%,-5.8,u,CCOC(=O)c1cnc2c(OC)cccc2c1N1CCN(c2ccccn2)CC1
-3.4%,-5.9%,3.4,7.8%,COc1ccc(C2CC(c3ccc(Br)cc3)=NN2C(=O)CSC2=NCCS2)cc1 (centres undefined)
2.8%,8.2%,x,x,O=C(O)c1ccn(CSc2cc(Cl)ccc2Cl)n1
-1.0%,-0.6%,x,1.0%,C/C(=N\N=C1\NC(=O)C(CC(=O)Nc2ccccc2F)S1)C1CCCCC1 (centres undefined)
-5.5%,18.0%,x,-10.5%,O=C(Cc1ccccc1)NCCc1c[nH]c2ccccc12
1.2%,21.5%,-3.5,-21.7%,Cn1nnc(NC(=S)NC(=O)c2cc3ccccc3o2)n1
0.0%,-5.1%,-7.7,0.1%,Cc1cc(/C=N/n2cnnc2)c(O)c([N+](=O)[O-])c1
-1.7%,-3.2%,-22.1,-1.6%,CC(C)N(CCn1c(SCC(=O)N2CC(=O)Nc3ccccc32)nc2ccccc2c1=O)C(C)C
-2.2%,8.7%,6.7,-16.2%,CC(=O)c1cccc(NC(=S)NNC(=O)c2ccc(C)c([N+](=O)[O-])c2)c1
0.3%,0.7%,-11.5,-1.7%,Cc1ccnc(SCC(=O)Nc2sc3c(c2C#N)CCC(C(C)(C)C)C3)n1 (centres undefined)
-2.3%,-4.6%,-3.0,-22.0%,O=C(Nc1ccc(F)c(F)c1)NC1CCCCC1
3.7%,1.9%,-0.1,-1.3%,CCC1C(=O)N(c2nc(C)cc(C)n2)N=C1C (centres undefined)
-0.6%,14.3%,x,x,O=C(CNC(=O)C1COc2ccccc2O1)Nc1cc(Cl)ccc1Cl (centres undefined)
-1.6%,13.4%,5.3,-21.1%,O=C(NCc1ccco1)c1ccc2c(c1)CCO2
u,-9.9%,-0.2,-0.9%,CCOC(=O)c1c(C)[nH]c(C(=O)COC(=O)/C=C/c2ccc(O)c(OC)c2)c1C
2.2%,-7.7%,x,15.3%,FC(F)(F)C1CCCN(c2nsc3ccccc23)C1 (centres undefined)
u,u,2.6,-7.6%,COc1cc(/C=C(\C#N)c2nnc(N3CCOCC3)n2-c2ccccc2)ccc1O
0.4%,-0.8%,5.0,-2.0%,Cc1ccc(-n2ncc3c(=O)n(Cc4ccccn4)cnc32)cc1C
-3.4%,0.8%,2.8,-34.2%,Cc1nc2ccccn2c1C(=O)C(=O)Nc1cc(F)ccc1F
-1.6%,-24.3%,5.1,-3.7%,CCOC(=O)CN(C(=O)CNC(=O)c1cccs1)C(C(=O)NC1CCCC1)c1ccncc1 (centres undefined)
-2.0%,-3.6%,3.4,-19.1%,Cc1nnsc1C(=O)Nc1cc(Cl)ccc1Cl
3.5%,0.2%,-19.6,5.7%,CCOc1ccc(S(=O)(=O)/N=C(\N)c2ccccc2)cc1
-3.7%,0.2%,-4.6,-29.3%,O=C(Nc1ccncc1)c1ccc2ccccc2c1
-1.2%,-7.4%,-0.4,-2.7%,Cc1nn(S(=O)(=O)c2cccc([N+](=O)[O-])c2)c(C)c1Br
-3.8%,14.4%,-4.1,-1.8%,CCOc1ccccc1OCC(=O)Nc1ccc(N2CCCCC2)cc1
u,-2.4%,-7.9,-17.1%,CCN(CC)CCn1c(/N=C/c2cc(Br)ccc2O)nc2ccccc21
1.1%,-12.0%,x,5.9%,Cc1ccc2nc(Br)c3c(c2c1)OC(CBr)C3 (centres undefined)
0.6%,-20.6%,x,1.1%,COc1ccc(OC)c(NC(=O)CSc2nnc(NC(=O)c3ccco3)s2)c1

# An excerpt from above in order of their number in miR-21 reporter, highest first.
SMILES | miR-21 reporter
O=C(Cc1ccccc1)NCCc1c[nH]c2ccccc12 | -10.5%
O=C(NCc1ccco1)c1ccc2c(c1)CCO2 | -21.1%
Cn1nnc(NC(=S)NC(=O)c2cc3ccccc3o2)n1 | -21.7%
